# SARS PLP yeast – blocks SARS-CoV papain-like protease in a yeast assay; S. cerevisiae expressing SARS-CoV PLpro, growth rescue; control for the full effect not named in the record; Potency, µM (titrated, usually from 32.9 µM), for inactives: at the highest dose activity, positive = growth rescue; actives 0.19% (n = 330,000); active means well fitted rising curve with a large enough effect; inconclusive means small, poorly fitted or top-dose-only effect; inactive means no such curve, though single readings can be large or run the other way; note: 0% is about no effect; nearly all actives have a fitted effect of over 55% in size; growth read by luminescence after 48 h
# NS1 function inh – blocks influenza NS1 protein function; S. cerevisiae slowed by influenza A NS1, growth recovery by OD600; Potency, µM (highest dose often 46.1 µM), inactives show at the top dose activity, positive = more growth; actives 0.4% (n = 270,000); active means well fitted rising curve with a large enough effect; inconclusive means small, poorly fitted or top-dose-only effect; inactive means no such curve, though single readings can be large or run the other way; note: nearly all actives have a fitted effect of over 50% in size
#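 Read-out: OD600 growth recovery of NS1-expressing budding yeast. Cells grown overnight at 30C in -URA glucose medium, washed, resuspended and diluted 1:100 in 2% galactose assay medium, pH 6.0. Same strain lacking NS1 served as positive control.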
# 2A StopGo – lowers the luciferase signal of an FMDV 2A StopGo reporter; human cells with a luciferase reporter of 2A StopGo recoding; control for the full effect not named in the record; Potency, µM (top dose mostly 57.9 µM), for inactives: at the highest dose signal change, negative = less light; actives 1.2% (n = 410,000); AID 1159524; active = well fitted falling curve with a large enough effect; inconclusive = small, poorly fitted or top-dose-only effect; inactive = no such curve, though single readings can be large or run the other way; tested in HEK293T cells; note: % is set by controls: 0 for no effect and ±100 for the full control effect; nearly all actives have a fitted effect of over 45% in size; luciferase light after 4 h
# LASV entry inh – inhibitors of Lassa virus binding or cell entry. Potency, µM (top dose mostly 37.9 µM), inactives show at the top dose activity change, negative = inhibition, hits mostly inhibitors. AID 540256. actives 1.2% (n = 300,000). Lassa virus pseudotype entry inhibition, cell reporter; control for the full effect not named in the record; active means well fitted inhibition curve with a large enough effect; inconclusive means small, poorly fitted or top-dose-only effect, or effect the other way; inactive means flat fitted curve, though single readings scatter; tested in HEK293 cells; note: % is set by controls: 0 for no effect and ±100 for the full control effect; nearly all actives have a fitted effect of over 50% in size; luciferase read-out
# Cruzain inh noDet – cruzain (T. cruzi) inhibition without detergent; P25779; purified cruzain, Z-FR-AMC fluorescence, no detergent; Potency, µM, inactives show max response, negative = inhibition, most hits filed as inhibitors; actives 2.3% (n = 200,000); AID 1476;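 note: plate controls were enzyme without inhibitor for no effect and buffer without enzyme for full effect; nearly all actives have a fitted effect of over 40% in size; top concentration of the series not given in the record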
# Target sequence (P25779 123-467 limits assumed): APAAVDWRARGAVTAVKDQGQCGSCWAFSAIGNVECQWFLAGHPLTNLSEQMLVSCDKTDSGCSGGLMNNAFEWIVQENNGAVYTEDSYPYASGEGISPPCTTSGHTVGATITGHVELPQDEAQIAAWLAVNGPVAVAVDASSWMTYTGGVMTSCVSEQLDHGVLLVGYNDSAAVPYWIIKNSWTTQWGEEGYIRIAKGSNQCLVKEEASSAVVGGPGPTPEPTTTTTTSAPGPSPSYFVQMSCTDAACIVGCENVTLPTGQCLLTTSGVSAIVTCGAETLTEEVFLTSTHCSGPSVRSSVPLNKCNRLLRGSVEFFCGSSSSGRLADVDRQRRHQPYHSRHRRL
#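 Detergent-free condition (0.00005% Triton X-100) in acetate buffer pH 5.5 with DTT. 1.5 nM enzyme and compound were pre-mixed 15 min, then 2 uM Z-FR-AMC substrate added; reaction progress from fluorescence change between first and third reads (60 s).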
# Cruzain Triton – blocks cruzain activity in presence of Triton detergent; purified cruzain, Z-FR-AMC fluorescence, 0.01% Triton; Potency, µM, inactives show max response, negative = inhibition, hits mostly inhibitors; actives 0.43% (n = 200,000); AID 1478;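 note: plate controls were neutral wells for no effect and buffer without enzyme for full effect; nearly all actives have a fitted effect of over 40% in size; top concentration of the series not given in the record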
#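 In this qHTS format, compounds are incubated with 1.5 nM cruzain for 15 min at room temperature before 2 uM Z-FR-AMC is added. Release of AMC is followed at 360/450 nm, and progress is taken as the 60 s fluorescence difference.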
# MARV entry inh – inhibitors of Marburg virus binding or cell entry | Marburg virus pseudotyped entry inhibition, cell reporter; control for the full effect not named in the record; about a third of the inactives were read at about 46 µM | AID 540276 | actives 1.8% (n = 300,000) | Potency, µM (doses to about 37.8 µM), inactives show at the top dose activity change, negative = inhibition, usual class: inhibitors; active = well fitted inhibition curve with a large enough effect; inconclusive = small, poorly fitted or top-dose-only effect, or effect the other way; inactive = flat fitted curve, though single readings scatter; tested in HEK293 cells; about a fifth of its hits are not listed in these tables; note: % is set by controls: 0 for no effect and ±100 for the full control effect; luciferase read-out
# RE007 growth inh – less growth of the S. pombe RE007 Vpr strain; Potency, µM (top dose mostly 92.2 µM), without a hit: at the highest dose activity change, negative = less growth; actives 0.21% (n = 360,000); S. pombe RE007 Vpr strain, BacTiter-Glo ATP luminescence, 24 h; control for the full effect not named in the record; active = well fitted falling curve with a large enough effect; inconclusive = small, poorly fitted or top-dose-only effect; inactive = no such curve, though single readings can be large or run the other way;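 note: % is set by controls: 0 for no effect and ±100 for the full control effect; nearly all actives have a fitted effect of over 50% in size; the assay follows cell death caused by Vpr and the record does not say whether a fall means rescue or toxicity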
#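 Fission yeast strain RE007, carrying one chromosomally integrated HIV-1 vpr copy, was seeded at OD 0.01 in PMG+AL medium with 23 nL pinned compound. After 24 h at 30 °C and 99% humidity, viability was read by BacTiter-Glo luminescence.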
# * hit, by the source's call; ? = inconclusive; nt = not tested or not shown; [ ] = remark or other dose. Unless noted, calls come from the whole dose curve; as a rule, active = well fitted curve in the direction sought with a large enough effect; inconclusive = small, poorly fitted or top-dose-only effect, or another doubt; inactive = no such curve, though single readings can be large; an effect the other way counts as inactive or inconclusive. Potency is the fitted concentration of half-maximal effect.
SMILES,SARS PLP yeast,NS1 function inh,2A StopGo,LASV entry inh,Cruzain inh noDet,Cruzain Triton,MARV entry inh,RE007 growth inh
CCCOc1cccc(C2c3c(oc4ccc(F)cc4c3=O)C(=O)N2c2nc(C)c(C(C)=O)s2)c1 (stereo not drawn),nt,nt,-4%,-11%[46.1 µM],15%,-1.7%,?,nt
CSc1nnc(N2C(=O)C(O)=C(C(=O)c3ccco3)C2c2ccc(F)cc2)s1 (stereo not drawn),0%,7%,1%,nt,nt,nt,nt,10%
O=C(CN1CCN(c2cccc(Cl)c2)CC1)Nc1nccs1,-10%,6%,-20%,nt,nt,nt,nt,-4%
CN1CCN(c2nc(-c3cccs3)nc3ccccc23)CC1,9%,2%,-21%,nt,-1%,-3.1%,nt,-3%
O=C(NCCCCCCCN1CCCCCCC1)C(C1CCCCC1)C1CCCCC1,nt,nt,?,?,nt,nt,?,14%
C/C(=N\NC(=O)Cc1cccn1C)c1cccs1,-6%,9%,-13%,3%,4%,-4.6%,?,-17%
O=C(OCC(=O)N1CCc2ccccc2C1)c1cccc([N+](=O)[O-])c1,-20%,-18%,-1%,nt,8%,-5.4%,nt,-13%
CCC(C)c1ccccc1NC(=O)COC(=O)c1ccc(C)c(NC(=O)c2ccco2)c1 (stereo not drawn),6%,-6%,?,?,2%,-2.2%,-13%,8%
CCc1nnc(NC(=O)CSc2nnc(CSc3nc(C)cc(C)n3)n2C)s1,8%,3%,10%,-8%,0%,1.3%,?,-3%
COc1cccc(C2CC(c3ccc(Cl)cc3)n3nc(N)nc3N2)c1 (stereo not drawn),1%,?,-17%,nt,-8%,0.1%,nt,11%
CCc1ccc(NCc2cc3cc4c(cc3n(CC(=O)Nc3ccc(Cl)cc3)c2=O)OCO4)cc1,nt,nt,-13%,14%[46.1 µM],16µM*,-1.3%,nt,nt
O=C(COC(=O)COc1ccccc1)Nc1ccc(Br)cc1F,2%,nt,-12%,?,nt,nt,-4%,-20%
COc1ccc([N+](=O)[O-])cc1N(CC(O)CN(C)C)S(=O)(=O)c1ccc(C)cc1 (stereo not drawn),-1%,2%,-6%,?,nt,nt,-32%,7%
CC1(C)CC(=O)C(C(N)=NC(=O)c2ccc([N+](=O)[O-])cc2)=C(O)C1,2%,nt,36%[activator],nt,nt,nt,3%[46.1 µM],-10%
Cn1c(=O)n(C/C=C/c2ccccc2)c(=O)c2c1nc1n2CCN1c1ccccc1,nt,nt,-7%,9%[46.1 µM],7%,0.9%,nt,nt
O=C(CSc1nccc(=O)[nH]1)c1ccccc1Br,18%,4%,17%,-22%,-6%,-15%,-2%,-2%
COc1ccc(NC(=O)CSc2nc3c(oc4ccccc43)c(=O)n2-c2ccc(C)c(C)c2)cc1,nt,nt,-2%,nt,?,-1.2%,-30%[46.1 µM],nt
Cc1ccc(-c2nc3c(c(SCc4ccc(Br)cc4)n2)Cc2c(CO)cnc(C)c2O3)cc1,nt,nt,-4%,16%[46.1 µM],14%,-1.8%,nt,nt
CCOC(=O)c1ccc(NC(=O)Cc2coc3cc(C)cc(C)c23)cc1,nt,nt,-11%,2%[46.1 µM],-10%,-8.1%,?,nt
CCOCCCNC(=O)Cn1ncc2c([nH]c3ccc(C)cc32)c1=O,nt,nt,-15%,?,-6%,-2.6%,nt,nt
O=C(CSc1oc(-c2ccc(F)cc2)nc1S(=O)(=O)c1ccc(Br)cc1)NC1CCCCC1,nt,nt,-2%,27%[46.1 µM],6%,-1.8%,6%[46.1 µM],nt
CCC1(CCO)C(=O)NC(=S)NC1=O,nt,nt,-17%,5%[46.1 µM],nt,nt,-7%[46.1 µM],3%
CCc1nnc(NC(=O)CSc2nccn2-c2cccc(C)c2C)s1,-6%,-103%,?,nt,13%,-0.7%,nt,27%
COc1cccc(OC)c1NC(=O)NC(=O)c1c(OC)c(Br)cc([N+](=O)[O-])c1OC,-1%,-2%,-29%,-6%,nt,nt,?,-5%
Cc1sc(-c2ccncc2)nc1OC(=O)c1cc(Cl)cc(Cl)c1,4%,2%,0%,2%,10%,-6.8%,-1%,8%
CN(C)c1nn(C(=O)Nc2cccc(C(F)(F)F)c2)cc1-c1ccccc1,1%,-13%,-10%,2%,-2%,-5.5%,27%,12%
O=C(Nc1ccc2oc(-c3cccc4ccccc34)nc2c1)c1ncn[nH]1,10%,3%,6%,?,?,-2.7%,8%,11%
COc1ccc(N2C(=O)c3ccccc3NC23CCCC3)cc1,2%,nt,40%[activator],?,nt,nt,?,-2%
CC(=O)c1ccc(NC(=O)/C(=C\c2ccc(F)cc2)NC(=O)c2ccco2)cc1,0%,0%,0%,-1%,nt,nt,-2%[46.1 µM],-7%
Nc1cc(-c2ccc(OC(F)(F)F)cc2)nn1-c1ccc(Cl)c(Cl)c1,-5%,16%,-7%,?,nt,nt,4%,?
COc1cc(-c2nc(-c3ccc(Br)o3)no2)cc(OC)c1OC,5%,-17%,-13%,nt,-4%,-0.6%,nt,7%
Cc1ccccc1NC(=O)c1cccc2nc3ccccc3nc12,-5%,1%,-28%,-5%,?,-9.0%,-1%[46.1 µM],6%
CC(C)(C)c1cc(N2CCOCC2)n2ncc(-c3ccccc3)c2n1,4%,2%,-10%,nt,nt,nt,nt,19%
COc1ccc(COc2cc(-c3cccc(OC)c3)nc3ccc(NC(=O)C(C)C)cc23)cc1,-12%,3%,0%,-28%,-16%,1.6%,-22%,-5%
CC(=O)Nc1ccc(S(=O)(=O)NC2CC(=O)N(c3ccc4c(c3)OCCO4)C2)cc1 (stereo not drawn),1%,nt,20%,13%,nt,nt,-1%[46.1 µM],7%
Cc1cccc(C(=O)O/N=C2\CCSc3ccc(C)cc32)c1,-4%,-6%,15%,-5%,-4%,-2.4%,-6%,-6%
COCc1cc(=O)n2[nH]c(C)c(-c3ccccc3)c2n1,3%,13%,-8%,7%,nt,nt,?,2%
CCOC(=O)C1CCN(C2=NC(=O)/C(=C/c3ccc(O)cc3)S2)CC1,-1%,-5%,-4%,1%[46.1 µM],nt,nt,20%[46.1 µM],12%
C/C(=N\Nc1cccc2cccnc12)c1ccccn1,-2%,nt,-77%,?,nt,nt,?,?
CC(C)OC(=O)c1ccc(COC(=O)CNC(=O)c2ccco2)cc1,-2%,-2%,4%,10%[46.1 µM],nt,nt,2%[46.1 µM],5%
COc1ccc(NC(=O)CN(C)C(=O)Cn2c(=O)oc3ccccc32)cc1,3%,nt,-10%,?,nt,nt,0%,6%
O=C(O)C(c1ccccc1)C(O)C1CCCC1 (stereo not drawn),nt,nt,0%,1%[46.1 µM],nt,nt,-5%,-23%
O=C(Nc1ccc(Br)cc1F)C1CCCO1 (stereo not drawn),9%,-4%,24%,11%,-12%,0.6%,14%,-7%
COc1ccc(C(=O)NC(NC(=S)Nc2ccc(S(N)(=O)=O)cc2)C(Cl)(Cl)Cl)cc1 (stereo not drawn),7%,-3%,7%,18%,-2%,-13%,-24%,15%
O=C1CCCN1CC(=O)N1CCCC(N2CCN(c3cccc(Cl)c3)CC2)C1 (stereo not drawn),-1%,-7%,18%,28%,nt,nt,?,4%
O=C(CSc1n[nH]c(-c2cccnc2)n1)Nc1ccc(Cl)cc1,0%,-2%,30%,-3%[46.1 µM],nt,nt,4%[46.1 µM],11%
CCNc1nc(NC(C)(C)C)nc(Oc2ccc(=O)n(-c3ccccc3)n2)n1,1%,nt,?,-3%[46.1 µM],10%,-3.5%,?,6%
CCN(CC)CC#CCC1(O)c2ccccc2-c2ccccc21,-5%,4%,nt,30%,-10%,3.1%,-3%,-1%
CC(C(=O)NCc1cccs1)N1C(=O)c2ccccc2C1=O (stereo not drawn),13%,2%,-20%,-2%,7%,-2.7%,12%,14%
CCOc1ccccc1CNC(=O)CCC(=O)N1Cc2ccccc2Oc2ncccc21,4%,18%,-28%,-2%[46.1 µM],nt,nt,?,-1%

# The list goes on.
SMILES,SARS PLP yeast,NS1 function inh,2A StopGo,LASV entry inh,Cruzain inh noDet,Cruzain Triton,MARV entry inh,RE007 growth inh
Cc1cccc(OC(C)C(=O)Nc2nonc2-c2ccc(Br)cc2)c1C (stereo not drawn),nt,nt,?,-25%[46.1 µM],?,-10%,?,nt
Clc1ccc(-c2c[nH]c3ccccc23)nn1,0%,4%,9%,3%,nt,nt,9%[46.1 µM],-12%
Cc1ccc(-n2nc(C)c3c2NC(=O)CSC3c2ccc3c(c2)OCO3)cc1 (stereo not drawn),5%,-38%,-1%,7%,?,-5.5%,?,15%
COC(=O)/C(=C(/F)Sc1cc(C)c(O)c(C)c1)C(F)(F)F,-44%,-36%,3%,0%,-2%,-1.2%,-32%,?
COc1ccc(C2C(=O)N(C3CCC(C)CC3)CC(=O)N2CCC2=CCCCC2)cc1OC (stereo not drawn),nt,nt,-17%,?,-3%,0.3%,nt,nt
CC(=O)Nc1cccc2c1C(=O)N(c1ccc(C)cc1)C2=O,1%,13%,43%[activator],8%,-3%,-1.1%,8%,-8%
Cc1ccc(S(=O)(=O)NCCC(=O)N2CCN(Cc3ccccc3)CC2)cc1,3%,-6%,nt,-1%,5%,1.4%,-7%,8%
CC1(C(=O)NNC(=O)c2cccc([N+](=O)[O-])c2)CC1(Br)Br (stereo not drawn),-2%,-14%,10%,nt,nt,nt,nt,1%
COc1ccc(Cl)cc1NC(=O)CN(c1cccc(C)c1C)S(C)(=O)=O,nt,nt,-18%,?,-2%,-8.1%,?,nt
Cc1cc(OCC(=O)NC2CCN(C)CC2)ccc1[N+](=O)[O-],1%,2%,-4%,5%[46.1 µM],nt,nt,5%[46.1 µM],4%
Cc1ccc(NC(=O)C2CCN(C(=O)c3cnn(-c4ccccc4)c3-n3cccc3)CC2)cc1C,nt,nt,?,-14%[46.1 µM],?,-6.8%,-18%[46.1 µM],nt
O=C(C1CCCN1S(=O)(=O)c1cccc2cccnc12)N1CCN(c2ccccc2)CC1 (stereo not drawn),-6%,8%,-25%,nt,7%,-1.2%,1%,1%

# Screening data: PubChem BioAssay, National Center for Advancing Translational Sciences (NCATS)
